MT1-MMP promoter: MT1-MMP gene expression reporter suppression – cell-based, luciferase reporter, luminescence (AID 618) | 0.62% of 87,000 active | MT1-MMP promoter luciferase reporter cells, luminescence | calls from a first round at 10 µM; hits with a dose series show EC50 in µM;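 active = over half of the reporter light lost at 10 µM or EC50 under 50 µM; inactive = the rest and hits that failed the dose series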;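 note: actives suppress MT1-MMP promoter-driven transcription so potencies describe inhibitors; HT1080 fibrosarcoma cells; overnight exposure; toxic or luciferase-blocking compounds were not removed from the actives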
Hsc70: small molecules displacing fluorescent ligand from Hsc70 – biochemical, fluorescence polarization, primary screen (AID 568) | Hsc70 fluorescence polarization, probe displacement; higher % means a stronger effect; strong numbers were not always called active | displacement, % at 20 µM, or IC50 in µM where a hit was titrated | 83,000 tested, under 10 active;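 active = displacement above 50% without optical interference and an IC50 on retest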;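 note: ATPase domain with a fluorescein-tagged ATP probe; 0% = vehicle and 100% = excess ADP; read after one hour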
WNV NS2B-NS3 inh: WNV NS2B-NS3 proteinase inhibition. P06935. z-score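 (tested at a level between 10 and 100 µM)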. WNV NS2B-NS3 protease, fluorogenic substrate Ex360/Em465; stronger effect = lower value. 0.18% of 65,000 active;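 active = z-score at -3 or under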;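 note: score is relative to mean and spread of the compound wells of a plate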
Target sequence (P06935 1371-1501 limits assumed): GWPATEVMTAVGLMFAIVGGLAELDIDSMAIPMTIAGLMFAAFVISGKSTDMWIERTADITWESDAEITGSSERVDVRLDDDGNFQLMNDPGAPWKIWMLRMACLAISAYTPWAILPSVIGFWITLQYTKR
Target sequence (P06935 1502-1679 limits assumed): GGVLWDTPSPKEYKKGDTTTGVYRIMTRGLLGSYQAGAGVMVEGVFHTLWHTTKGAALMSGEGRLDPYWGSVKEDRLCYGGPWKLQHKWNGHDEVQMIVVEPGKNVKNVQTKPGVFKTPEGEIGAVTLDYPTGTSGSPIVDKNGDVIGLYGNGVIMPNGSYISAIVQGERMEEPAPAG
An asterisk follows results filed as active; i = inactive; · = no result given; + = active, no number. Outcome played no part in choosing rows; overall some 0.87% were active at least once.

SMILES	MT1-MMP promoter	Hsc70	WNV NS2B-NS3 inh
COC(=O)C1CCN(C(=O)C(C)Oc2ccc(Cl)cc2Cl)CC1 (centres undefined)	i	6.7%	-0.05
O=c1oc2ccccc2c(Nc2ccccc2)c1[N+](=O)[O-]	i	-4.2%	·
C=CCn1c(=O)/c(=C2/SC(C)=C(C)N2CC)s/c1=C1/C(=O)N(C)C(=S)N1c1ccccc1	i	-2.1%	·
CN1CCN(Cc2nc(N)nc(Nc3ccc4c(c3)OCCO4)n2)CC1	i	-4.2%	-1.01
CCc1nn(CC(=O)N2CCN(Cc3ccc4c(c3)OCO4)CC2)c(=O)c2cc3occc3n12	i	-3.0%	0.17
COc1ccc(C(=O)NCc2cn3ccccc3n2)cc1	i	4.9%	-1.59
COc1cc(CN2CCC(C(=O)N3CCCC(C)C3)CC2)cc(Br)c1O (centres undefined)	i	-1.7%	-0.84
COc1cc(C2C(C#N)=C(N)N(c3cccnc3)C3=C2C(=O)CC(C)(C)C3)ccc1O (centres undefined)	i	3.8%	·
COc1ccccc1C(=O)NCCn1cc(SCC(=O)Nc2cc(C)on2)c2ccccc21	i	-0.1%	-0.26
CCc1nnc(SCc2ccc(CSc3nnc(CC)n3N)cc2)n1N	i	4.2%	0.81
CSc1nc(SCC(=O)NC(c2ccccc2)c2ccccc2)c2c3c(sc2n1)CN(C)CC3	i	-14.5%	·
CCOC(=O)c1[nH]c(C)c(C(=O)N(CC)CC)c1C	i	0.7%	-0.73
Cc1[nH]n(-c2ccccc2)c(=O)c1/C=N/c1ccccn1	i	0.3%	-1.32
CCOC(=O)C1=C(Cn2ccc(C(F)(F)F)n2)NC(=O)NC1c1ccc2c(c1)OCO2 (centres undefined)	i	4.7%	-0.81
CC[n+]1cc(-c2ccccc2)nc(N2CCOCC2)n1	i	-5.5%	0.11
Cc1nn(-c2ccc(F)cc2)c(Cl)c1/C=C(\CC(=O)O)c1nc2ccccc2s1	i	-1.2%	·
CCOC(=O)CC1=CC(C)(CC(=O)OCC)C(C#N)(C#N)C(N)=C1C#N (centres undefined)	i	0.5%	0.29
CC(C)(C)C(=O)Cn1c(=N)n(Cc2ccccc2)c2ccccc21	i	2.2%	0.03
O=C(Cn1cnc2c(nnn2Cc2ccccc2)c1=O)N1CCN(c2ccccc2)CC1	i	-0.4%	0.99
O=C(c1ccccc1)C(Sc1ncn[nH]1)c1ccccc1 (centres undefined)	i	-12.4%	-0.69
N=c1c(C(=O)NCc2ccco2)cc2c(=O)n3ccccc3nc2n1CCc1ccccc1	i	9.1%	-0.54
CCN(CC)CCNC(=O)C(C)c1nn(C)c(=O)c2ccccc12 (centres undefined)	i	-0.3%	·
CCn1c(=O)n(CC)c2cc(S(=O)(=O)N3CCC(c4ccccc4)CC3)ccc21	i	-5.8%	-0.73
COc1ccc(C(C)(C)C)cc1NC(=O)COC(=O)c1cnc(C)cn1	i	3.9%	2.64
O=c1c2ccccc2[nH]c(=S)n1CCCN1CCN(C2CCCCC2)CC1	i	-0.5%	0.91
New compounds follow
SMILES	MT1-MMP promoter	Hsc70	WNV NS2B-NS3 inh
O=P(O)(CN1CCCCC1)C1CCCCC1O (centres undefined)	i	9.8%	-0.99
O=C(O)Cn1nnc(-c2cccs2)n1	i	-1.2%	-0.39
COc1ccc(S(=O)(=O)NC2CC3CCC2C3)cc1Cl (centres undefined)	i	-2.1%	0.06
CCOC(=O)N1CCN(Cc2nc(-c3ccc(Cl)cc3)no2)CC1	i	-3.2%	·
CCCc1n[nH]c(=O)[nH]1	i	-0.1%	1.27
O=S(=O)(c1ccc(OCC(O)CN2CCN(c3ccccc3)CC2)cc1)N1CCOCC1 (centres undefined)	i	-2.8%	-0.49
O=C(Nc1ccccc1N1CCN(c2ccccc2)CC1)C12CC3CC(CC(C3)C1)C2	i	7.2%	·
CSCCC1NC2(C(=O)Nc3c(Cl)cccc32)[C@@H]2C(=O)N(C3CCCC3)C(=O)[C@H]12 (some centres undefined)	i	-4.8%	1.53
CCOC(=O)c1ccc(NC(=O)Cn2nnc(-c3ccccc3)n2)cc1	i	2.2%	-0.79
Cc1ccc(-c2c(C)n([O-])c3c([n+]2=O)CCCC3)o1	i	6.3%	·
CS(=O)(=O)N(CC(=O)NC1CC1)c1cccc(F)c1	i	4.5%	-0.26
CC(C)n1c(C(=O)OCC(=O)NCc2ccc3c(c2)OCO3)cc2occc21	i	-2.6%	0.65
Cc1[nH]c(=O)[nH]c(=O)c1S(=O)(=O)N1CCCC(C(=O)N2CCC(Cc3ccccc3)CC2)C1 (centres undefined)	i	3.9%	-1.67
N#Cc1c(-c2ccco2)nc(SCc2ccc(F)cc2)[nH]c1=O	i	5.1%	0.6
Cn1c(SCc2nc3ccccc3n2CCO)nc2ccccc21	i	-9.8%	-0.67
CCOC(=O)N1CCC(NC(=O)c2cc(S(=O)(=O)N3CCOCC3)ccc2F)CC1	i	-5.0%	1
O=c1c(-c2ccnn2-c2cccc(Cl)c2)cnc2n1CCS2	i	1.5%	·
COc1ccc(NC(=O)CN2CCC3(O)CCCCC3C2c2ccccc2OC)cc1 (centres undefined)	i	2.0%	-0.5
N#CC1=C2SCN(c3ccc(F)cc3)CN2C(=O)CC1c1cccc(F)c1 (centres undefined)	i	3.5%	-1.17
CCCN1C(=O)c2ccccc2NC1c1ccc(OC)cc1O (centres undefined)	i	0.2%	2.18
CC(C)(C)c1cnnn1-c1ccc(NC(=O)c2ccc(Br)o2)cc1	i	-4.3%	-2.48
Fc1ccccc1CSc1nnc(-c2cnccn2)n1Cc1ccco1	i	2.0%	-1.38
Cc1nc(SC2C=CS(=O)(=O)C2)n[nH]1 (centres undefined)	i	-8.9%	-0.07
CCOc1ccc2cc(C#N)c(SCC(=O)NC(C)CC)nc2c1 (centres undefined)	i	-35.8%	-0.78
O=S(=O)(c1cccs1)N1CCN(C/C=C/c2ccccc2)CC1	i	0.1%	-0.67

3 entries from above, arranged by formula weight, low to high:
SMILES	MT1-MMP promoter	Hsc70	WNV NS2B-NS3 inh
O=C(Nc1ccccc1N1CCN(c2ccccc2)CC1)C12CC3CC(CC(C3)C1)C2	i	7.2%	·
CCOC(=O)N1CCC(NC(=O)c2cc(S(=O)(=O)N3CCOCC3)ccc2F)CC1	i	-5.0%	1
Cc1[nH]c(=O)[nH]c(=O)c1S(=O)(=O)N1CCCC(C(=O)N2CCC(Cc3ccccc3)CC2)C1 (centres undefined)	i	3.9%	-1.67

Next results follow:
SMILES	MT1-MMP promoter	Hsc70	WNV NS2B-NS3 inh
CCOC(=O)c1cccc(NC(=O)Cn2c(CC(=O)NC)nc3ccccc32)c1	i	-7.0%	-0.35
CCOC(=O)c1csc(NC(=O)CSc2nnc(C3CC3)n2C)n1	i	-1.1%	-0.75
CC1Cc2ccccc2N1C(=O)CSc1nnc(CSc2ncccn2)n1C (centres undefined)	i	2.1%	-0.5
CCCCNC(=O)C1CCN(S(=O)(=O)c2cnc[nH]2)CC1	i	-5.3%	-2.06
Cn1c(=O)c2c(nc(SCC(=O)N3CCc4ccccc43)n2Cc2ccc(F)cc2)n(C)c1=O	i	-0.6%	·
Cc1nc(SC(C(=O)c2ccccc2)c2ccccc2)n[nH]1 (centres undefined)	i	0.8%	·
CC(=O)c1ccc(N(C)C)c2c(N(C)C)cccc12	i	-1.3%	-0.35
CCN(CC)CC(=O)Nc1ccc2c(c1)Nc1ccccc1CC2	i	-0.1%	0.14
CCOC(=O)C1CCCN(C(=O)c2ccc3c(=O)n(CCOC)c(=S)[nH]c3c2)C1 (centres undefined)	i	-2.2%	-0.67
COc1cccc(OCCCCN2CC(C)OC(C)C2)c1 (centres undefined)	i	1.7%	·
COc1ccc(CN2C(=O)c3ccccc3C2C(=O)NC2CCCC2)c(OC)c1 (centres undefined)	i	-1.1%	-0.00864
O=C(O)c1ccccc1C(=O)OCCCCOC(=O)c1ccccc1C(=O)O	i	-1.0%	-1.22
CCc1nc(SCC(=O)NCCc2ccccc2)c2oc3ccccc3c2n1	i	-1.5%	·
Cc1cccc(N2CCN(C(=O)c3cc4c(C)nc5ccccc5c4o3)CC2)c1C	i	8.0%	-0.73
CCOC(=O)c1c(NC(=O)CSc2nnc(-c3ccncc3)n2Cc2ccco2)sc(C(C)=O)c1C	i	-0.2%	·
c1ccc(CCn2nnnc2C(c2cccnc2)N2CCN(c3ccccc3)CC2)cc1 (centres undefined)	i	-1.4%	0.93
Cn1c(=O)c2c(ncn2CC(=O)Nc2ccc(N3CCOCC3)cc2)n(C)c1=O	i	-1.3%	·
CC(=O)N(/N=C1\Sc2ccccc2C1=O)c1ccc(C)cc1C	1.97µM*	10.8%	·
CCc1ccc(OCc2nc(-c3ccccn3)no2)c(Br)c1	+	3.7%	-0.14
CC1=CC(C)(C)N(C(=O)c2ccccc2)c2ccccc21	i	3.8%	-0.68
O=C(CSc1ccccn1)c1ccc(F)cc1	i	-1.6%	1.27
CN(C)Cc1nc2ccccc2c(=O)n1Cc1nc(-c2cc3ccccc3o2)cs1	i	0.5%	0.97
CC(=O)CCc1c(C)[nH]c2ccccc2c1=O	i	-4.1%	0.8
c1ccc(CCNC2=NCCCS2)cc1	i	-3.1%	-0.37
CCCCC1S/C(=N/N=C/c2ccc(OC)cc2)N(Cc2ccc(OC)cc2)C1=O (centres undefined)	i	3.2%	·
Continued.
SMILES	MT1-MMP promoter	Hsc70	WNV NS2B-NS3 inh
Cn1ncc(Cl)c1C(=O)Nc1ccncc1	i	2.6%	·
C=CCn1c(SCn2nnc3ccccc3c2=O)nc2scc(-c3cccs3)c2c1=O	i	-10.2%	-0.53
COc1ccc(OCCSc2nnc(-c3ccc(OC)cc3)n2N)cc1	i	1.4%	·
CC(C)(C)OC(=O)N1CCC[C@H]1c1nnc(SCc2ccccc2F)o1	i	-5.1%	-0.21
O=c1c2ccccc2cnn1-c1nc2ccccc2s1	+	4.1%	0.4
C=CCn1c(=O)c2c3c(sc2n2c(Nc4ccccc4)nnc12)CCCC3	i	1.3%	·
CC1=CC(C)(C)N2C(=O)C3(C(C#N)=C(N)Oc4cc(C)oc(=O)c43)c3cccc1c32 (centres undefined)	i	-8.7%	-0.24
CCS(=O)(=O)N1CCC(C(=O)NCCCN2CCCC2)CC1	i	-1.8%	0.09
COc1ccc(N2CCN(Cc3nc4c(c(=O)[nH]c(=O)n4C)n3CCCc3ccccc3)CC2)cc1	i	0.8%	-0.84
CCCOc1c(Cl)cc(/C=N/O)cc1OCC	i	-5.3%	·
Cc1cccc(CSc2nnc(-c3ccccn3)n2N)c1	i	-1.7%	-1.25
C/C(N)=C(/C#N)C(=O)COC(=O)c1cc(C)n(-c2ccc(F)cc2)c1C	i	-2.3%	-0.54
Cc1cccc2cc(C#N)c(SCC(=O)Nc3ccccc3N3CCOCC3)nc12	i	-6.3%	·
CCc1ccc2[nH]c(=O)c(CN(CCN(C)C)C(=O)Nc3ccccc3)cc2c1	i	4.2%	-0.84
CS(=O)(=O)N1CCC(NC(=O)Cc2ccccc2)CC1	i	7.0%	-1.16
CCC1(CC)Cc2ccccc2-c2nc(CN3CCOCC3)[nH]c(=O)c21	i	-2.2%	1.32
CC(=NCCCn1ccnc1)c1c(-c2ccccc2)[nH]n(-c2nc3ccccc3s2)c1=O	i	2.4%	·
C=CCOn1c(=O)c(C)[n+]([O-])c2ccccc21	i	1.9%	-1.02
Cc1cc(C2(c3ccc(O)c(C)c3)OC(=O)c3ccccc32)ccc1O	i	0.5%	·
C1CCN=C(Nc2nc3c(s2)CCCC3)CC1	i	3.0%	0.87
Cn1c(=O)c2c(ncn2CC(=O)N(Cc2ccccc2)c2ccccn2)n(C)c1=O	i	7.0%	0.96
CC(C)(C)OC(=O)N1CCC[C@H]1c1nnc(SCc2ccc(Cl)cc2Cl)o1	i	-0.7%	0.83
COc1ccccc1CN1C(=O)[C@@H]2C(CC(N)=O)NC3(C(=O)Nc4c3ccc(Cl)c4C)[C@@H]2C1=O (some centres undefined)	i	0.4%	-0.26
COc1ccc(N2CCN(C(=O)C(CCSC)N=C3NS(=O)(=O)c4ccccc43)CC2)cc1 (centres undefined)	i	-2.4%	0.18
CN(Cc1ccccc1)c1nc2c(c(=O)[nH]c(=O)n2C)n1C	i	-3.7%	-1
CCc1ccccc1N(C(=O)c1cccs1)C1C=CS(=O)(=O)C1 (centres undefined)	i	-0.4%	-1.05
COc1ccc2c(c1)CCc1c(C(=O)N3CCOCC3)noc1-2	i	1.0%	-0.87
Cc1ccc(C(c2nnnn2C(C)(C)C)N(Cc2ccco2)Cc2cccs2)cc1 (centres undefined)	i	1.0%	-0.19
COc1ccc(Nc2nc(N3CCCC3)nc(N3CCCC3)n2)c(OC)c1	i	-1.3%	·

Full records, quoted from the list. Order of screens: MT1-MMP promoter	Hsc70	WNV NS2B-NS3 inh
COc1ccccc1CN1C(=O)[C@@H]2C(CC(N)=O)NC3(C(=O)Nc4c3ccc(Cl)c4C)[C@@H]2C1=O (some centres undefined) in the list: i	0.4%	-0.26
Cn1c(SCc2nc3ccccc3n2CCO)nc2ccccc21 in the list: i	-9.8%	-0.67

Looked up by compound from the entries so far (3):
SMILES	MT1-MMP promoter	Hsc70	WNV NS2B-NS3 inh
CC(C)(C)C(=O)Cn1c(=N)n(Cc2ccccc2)c2ccccc21	i	2.2%	0.03
CCOC(=O)c1c(NC(=O)CSc2nnc(-c3ccncc3)n2Cc2ccco2)sc(C(C)=O)c1C	i	-0.2%	·
Fc1ccccc1CSc1nnc(-c2cnccn2)n1Cc1ccco1	i	2.0%	-1.38

Source: PubChem BioAssay (several laboratories)
